Bioassay records: PubChem BioAssay, ICCB-Longwood Screening Facility, Harvard Medical School
GIV-Gai inh: inhibitors of GIV peptide binding to Galpha-i3, primary screen, biochemical, fluorescence polarization, FITC-GIV GBA peptide, rat Galphai3; Guanine nucleotide-binding protein G(i) subunit alpha-3 (Rattus norvegicus), P08753; 90 min; hits give low values; scaled: aluminum fluoride 0%, vehicle 100%; percent of control (FP), % (no concentration beside the values); 210,000 compounds, 0.42% hits; AID 1224905, 2016;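 active means replicate mean at 85% of control or lower, very high polarization wells dropped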;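 further: wells of about 15 µL received 100 nL stock; the first replicate is given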
Target sequence (P08753 whole entry, looked up): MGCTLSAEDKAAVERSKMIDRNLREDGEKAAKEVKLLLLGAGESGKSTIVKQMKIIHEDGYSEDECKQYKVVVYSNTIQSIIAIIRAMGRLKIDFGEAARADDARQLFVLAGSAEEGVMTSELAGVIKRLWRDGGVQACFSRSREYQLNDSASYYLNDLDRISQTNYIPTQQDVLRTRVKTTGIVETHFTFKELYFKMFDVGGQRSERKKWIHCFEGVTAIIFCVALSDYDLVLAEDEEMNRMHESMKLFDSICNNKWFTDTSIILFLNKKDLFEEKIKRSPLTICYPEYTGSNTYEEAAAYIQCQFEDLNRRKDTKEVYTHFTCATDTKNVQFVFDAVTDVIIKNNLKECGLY
The depositor's hits bear a star. An excerpt; rates above refer to the full screens.

GIV-Gai inh	structure
104	Cc1ccc(Oc2nccnc2N2CCCC(C(=O)Nc3ccc(Br)c(C)c3)C2)cc1 (stereo not drawn)
103	O=C(Nc1ccc(S(=O)(=O)N2CCCCC2c2cccnc2)cc1)c1cccc(Br)c1 (stereo not drawn)
110	COc1cc(C2C(C#N)=C(N)Oc3n[nH]c(-c4ccc5c(c4)OCO5)c32)cc(Cl)c1O (stereo not drawn)
107	Cc1nc(N2CCOCC2)c2c(C)c(C(=O)NCCN(C)c3ccccc3)sc2n1
104	O=S(=O)(NC1CC1)c1cc(-c2nc(-c3cccc(F)c3)no2)cs1
110	CCCN(Cc1ccc(C(C)C)cc1)Cc1cc(=O)n2ccsc2n1
104	Cc1nn(-c2ccccc2)c(C)c1CN1CCC2(CC1)OCCO2
107	CCc1ccc2c(c1)C(O)(c1c(C)[nH]c3ccccc13)C(=O)N2 (stereo not drawn)
118	CCN(CC)c1ncnc2sc(C(=O)N3CCC(C(N)=O)(N4CCCCC4)CC3)c(C)c12
104	CCC1(CC)Cc2cc(OC)c(OC)cc2C(CCl)=N1
101	Cc1ccc(S(=O)(=O)NC2CCN(c3ncnc4c3CCC4)C2)cc1 (stereo not drawn)
101	CCNC(=O)N1CCC(OC)CC1
98	O=S(=O)(c1cc(-c2cc(C(F)(F)F)on2)cs1)N1CCN(c2ccc(Cl)cc2)CC1
101	COc1ccc(-c2csc(C)n2)cc1S(=O)(=O)N1CCCCC1C (stereo not drawn)
108	Cc1c(C)n(C(=O)CSc2nnc(-c3ccccc3)o2)c2ccccc12
102	CCN(CC)c1ccc(C(C2=C(O)CC(C)(C)CC2=O)C2C(=O)CC(C)(C)CC2=O)cc1 (stereo not drawn)
118	CCOC(=O)C1=C(CSc2nc(-c3cccs3)ccc2C#N)OC(N)=C(C#N)C1c1cccc(F)c1 (stereo not drawn)
98	O=C(Nc1ccc(CN2CCOCC2)cc1)C1(c2ccccc2)CCCC1
97	CCCn1c(=O)[nH]c2c(C(=O)N3CCCC(C)C3)snc2c1=O (stereo not drawn)
112	COc1ccccc1CNC(=O)CSc1nc2ccccc2n1S(=O)(=O)c1ccc(C)cc1

Part of the list above in order of heavy-atom count, ascending:
GIV-Gai inh	structure
104	CCC1(CC)Cc2cc(OC)c(OC)cc2C(CCl)=N1
97	CCCn1c(=O)[nH]c2c(C(=O)N3CCCC(C)C3)snc2c1=O (stereo not drawn)
108	Cc1c(C)n(C(=O)CSc2nnc(-c3ccccc3)o2)c2ccccc12
104	Cc1ccc(Oc2nccnc2N2CCCC(C(=O)Nc3ccc(Br)c(C)c3)C2)cc1 (stereo not drawn)
102	CCN(CC)c1ccc(C(C2=C(O)CC(C)(C)CC2=O)C2C(=O)CC(C)(C)CC2=O)cc1 (stereo not drawn)
112	COc1ccccc1CNC(=O)CSc1nc2ccccc2n1S(=O)(=O)c1ccc(C)cc1

Returning to the listing, repeating the four entries before the break.
GIV-Gai inh	structure
118	CCOC(=O)C1=C(CSc2nc(-c3cccs3)ccc2C#N)OC(N)=C(C#N)C1c1cccc(F)c1 (stereo not drawn)
98	O=C(Nc1ccc(CN2CCOCC2)cc1)C1(c2ccccc2)CCCC1
97	CCCn1c(=O)[nH]c2c(C(=O)N3CCCC(C)C3)snc2c1=O (stereo not drawn)
112	COc1ccccc1CNC(=O)CSc1nc2ccccc2n1S(=O)(=O)c1ccc(C)cc1
108	Cc1ccsc1C(=O)N1CCc2c(c(-c3nc(C4CC4)no3)nn2C)C1
142	CCOC(=O)c1ccc(Cn2c3ccccc3c3nn4cc(-c5ccc(F)cc5)nc4nc32)o1
217	CCOC(=O)c1c(NC(=O)c2ccc(S(=O)(=O)N(C)C)cc2)sc2c1CCN(Cc1ccccc1)C2
112	COc1ccccc1C1C2CCCC=C2C(C#N)=C(N)C1(C#N)C#N (stereo not drawn)
118	CC1CCc2oc3ccc(NS(=O)(=O)c4ccc5ccccc5c4)cc3c2C1 (stereo not drawn)
107	CCOC(=O)C1CCN(C(=O)c2c[nH]c3ccc(S(=O)(=O)N(C)c4ccccc4OCC)cc3c2=O)CC1
107	CCCCS(=O)(=O)Nc1ccc2nc(SCC)sc2c1
96	CC(=O)Nc1ccc(Cc2nc(-c3ccc(NS(C)(=O)=O)cc3)no2)cc1
102	COc1ccc(OC)c(S(=O)(=O)N2CSC[C@@H]2C(=O)NCc2csc(C)n2)c1
104	CC1(C)CC(=O)C2=C(C1)Nc1ncnn1C2c1ccc(Cl)cc1Cl (stereo not drawn)
101	CCc1cc2c(N(C)c3ccccc3)ncnc2s1
109	Cc1cccc(NCc2nnc3n2CCCCC3)c1
105	CN1C2C=C(N(CCc3ccccc3)C(=O)c3ccccc3)CC1CC2 (stereo not drawn)
110	O=C1C2CCCCC2C(=O)N1c1cc([N+](=O)[O-])ccc1F (stereo not drawn)
106	C/C(=N\OCC(=O)Nc1oc(-c2ccccc2)c(-c2ccccc2)c1C#N)c1ccc(C)cc1
108	O=C1CC(c2ccc(-c3ccccc3)cc2)c2ccc3ccccc3c2N1 (stereo not drawn)
104	CCCCC(=O)Nc1cc(Cl)ccc1OCc1cc(=O)n2oc(C)cc2n1
120	CC(=O)C1=C(C)N=c2s/c(=C/c3cc4c(cc3Br)OCO4)c(=O)n2C1c1ccc(N(C)C)cc1 (stereo not drawn)
112	O=C(Nc1ccc(N2CCN(c3ncccn3)CC2)c(C(=O)O)c1)c1ccc(Cl)cc1
114	COc1cc(C(=O)NC(c2cccs2)c2cc(Cl)c3cccnc3c2O)cc(OC)c1OC (stereo not drawn)

(cont.)
GIV-Gai inh	structure
97	Cc1ccc(CN2CCN(C3CCN(C(=O)NC4CCCC4)CC3)C(=O)C2=O)cc1
102	CCCCOc1cccc(NC(=O)CSC2=C(C#N)C(c3ccccc3)C(C(=O)Nc3ccccc3)=C(C)N2)c1 (stereo not drawn)
103	Cc1cccc(NC(=O)C2CCCN(C(=O)C3Sc4ccccc4NC3=O)C2)c1C (stereo not drawn)
114	O=[N+]([O-])c1ccc2c(c1)C=C1CCCCC1(NC1CCCCC1)O2 (stereo not drawn)
101	CC(=O)Oc1ccc(C2(C)CC(C)(C)NC(=S)N2)c(OC(C)=O)c1 (stereo not drawn)
101	CCOc1ccc(C(c2c(C)[nH]n(-c3ccccc3)c2=O)c2c(C)[nH]n(-c3ccccc3)c2=O)cc1
102	O=C(c1nn2c(C(F)(F)F)cc(-c3ccc(Br)cc3)nc2c1Cl)N1CCOCC1
127	COc1ccc(/C=C2\C=C(c3ccccc3)N(c3cccc(O)c3)C2=O)cc1Br
106	CC(C)CCNC(=O)C1CCN(C(=O)c2ccc(NC(=O)c3ccc(Cl)cc3)cc2)CC1
103	CCOc1cc(C2NC(=O)NC(C)=C2C(=O)Nc2ccc(C)cc2C)ccc1O (stereo not drawn)
101	Cc1ccc(C(=O)Nc2ccc3c(c2)CC(C(=O)NCCC(C)C)CO3)cc1 (stereo not drawn)
42*	C=CCn1c(=O)/c(=C2/Sc3ccc(OC)cc3N2CC)s/c1=C1\SC(=S)N(CCCC)C1=O
107	COc1ccc(C(=O)NCc2nc3cccnc3n2Cc2ccccc2)cc1OC
100	CC(C)c1nc(SCC(=O)NCC2CCCO2)c2c(=O)n(C)c(=O)n(C)c2n1 (stereo not drawn)
114	c1ccc2c(c1)ccc1nnc(-c3ccc4c(c3)OCO4)n12
101	COc1ccc(-c2nc3c4ccccc4c4ccccc4c3[nH]2)c(OC)c1
108	CCOc1ccc2nc(SC3CC(=O)N(c4ccc(OC)c(OC)c4)C3=O)sc2c1 (stereo not drawn)
101	O=C(Cn1c2ccccc2n2c(=O)cc(-c3ccccc3)nc12)Nc1ccc(F)cc1F
107	COc1ccc(NS(=O)(=O)c2ccc(/C=C\c3onc(C)c3NC(C)=O)cc2)cc1OC
102	Cc1nc(N2CCCCC2C)c2c(C)c(C(=O)Nc3ccc(F)cc3)sc2n1 (stereo not drawn)

Marked active in GIV-Gai inh (from the list above):
GIV-Gai inh	structure
42*	C=CCn1c(=O)/c(=C2/Sc3ccc(OC)cc3N2CC)s/c1=C1\SC(=S)N(CCCC)C1=O

(list continues)
GIV-Gai inh	structure
104	O=c1ccc(-c2cccc(Cl)c2)nn1CCc1nc(-c2ccc3c(c2)OCO3)no1
105	COC(=O)c1sccc1NC(=O)Cn1cc(-c2nc(-c3ccc(C)cc3)no2)ccc1=O
95	CC(C)CNC(=O)CN1c2ccccc2NC2=C(C(=O)CC(C)(C)C2)C1c1ccco1 (stereo not drawn)
118	O=C(O)c1ccc2nc(-c3ccc(-c4ccccc4)cc3)c(-c3ccc(-c4ccccc4)cc3)nc2c1
104	CCC(C)C(C(=O)O)N1C(=O)NC2NC(=O)NC21 (stereo not drawn)
98	c1ccc(-c2nc3ccccc3c3nnc(SCc4cccnc4)n23)cc1
108	O=C1C=C(/C=C/c2cccs2)C[C@H](c2cccs2)[C@H]1n1cnc([N+](=O)[O-])n1
107	COc1ccc(N2CCN(CCNC(=O)CN3C(=O)COc4ccccc43)CC2)cc1
107	CCCCNC(=O)CSc1nc2ccccc2nc1Cc1cccc([N+](=O)[O-])c1
104	CN(C)CCCNC(=O)N1c2ccccc2C=Cc2ccccc21
101	CCOC(=O)c1[nH]c(C)c(CCC(=O)N2CCC(N3CCCCC3)CC2)c1C
135	O=c1n(Cc2ccc3c(c2)OCO3)nc2c(-c3nc(-c4ccccc4)no3)cccn12
104	COc1ccccc1N1CCN(c2ncnc3sc(C(=O)NCC4CCCO4)c(C)c23)CC1 (stereo not drawn)
103	Cc1nn(-c2nc3ccc(Br)cc3s2)c2c1C(c1cc(F)ccc1F)CC(=O)N2 (stereo not drawn)
101	CCCn1nnc(NCc2ccc(-c3ccccc3Cl)o2)n1
100	CCNc1cc(C)nc(N2CCN(C(=O)CC(C)C)CC2)n1
115	CCCN(CCC)C(=O)c1c(NC(=O)c2cccnc2)sc2c1CCCCC2
111	COCON1C(=O)CN(C(C)=O)C1c1ccc(Cl)cc1Cl (stereo not drawn)
103	CN1CCN(c2ccc(C3C4=C(CC(C)(C)CC4=O)OC4=C3C(=O)CC(C)(C)C4)cc2[N+](=O)[O-])CC1
104	COc1ccc(-c2cc(C(F)(F)F)n3nc(C(=O)NCCCN4CCOCC4)cc3n2)cc1OC

Part of the list above, comma-delimited.
Molecule,GIV-Gai inh
CCC(C)C(C(=O)O)N1C(=O)NC2NC(=O)NC21 (stereo not drawn),104
c1ccc(-c2nc3ccccc3c3nnc(SCc4cccnc4)n23)cc1,98
O=C1C=C(/C=C/c2cccs2)C[C@H](c2cccs2)[C@H]1n1cnc([N+](=O)[O-])n1,108

(next part)
GIV-Gai inh	structure
106	Cc1ccc(-n2nc(C)c3c(=O)n(CC(=O)NCc4cccc(Cl)c4)ccc32)cc1
111	CC(C)Cc1ccc(S(=O)(=O)N2CCCC(C)(C(=O)NCc3ccccc3)C2)cc1 (stereo not drawn)
113	COC(=O)c1cccc(N2C(=O)/C(=C/c3ccc([N+](=O)[O-])cc3)C=C2c2ccccc2)c1
115	O=C(CN1C2=NCCCN2c2ccccc21)c1ccc(Cl)c(Cl)c1
104	COc1ccccc1N1CCN(c2ncnc3sc(C(=O)NCc4ccco4)c(C)c23)CC1
104	Cn1c(=O)n(C)c2cc(S(=O)(=O)NC3CC3)ccc21
105	Cc1ccccc1C1Nc2ccc3ncccc3c2C2=C1C(=O)CC(C)(C)C2 (stereo not drawn)
104	CC(C)N1C(=O)CCC1C(=O)N1CCN(c2cccc(Cl)c2)CC1 (stereo not drawn)
99	CC(C)NC(=O)c1cc(NS(=O)(=O)c2ccc(Cl)cc2)cnc1N1CCNCC1
109	CCCN1C(=O)c2ccccc2Sc2cc(NC(=O)CSc3nccc(C)n3)ccc21
110	C=CCOc1ccc(C2C(C(=O)OCC)=C(C)N=c3s/c(=C/c4ccccn4)c(=O)n32)cc1OCC (stereo not drawn)
100	Cc1ccc(N2NC(C)(CCC(C)C)NC2=S)cc1 (stereo not drawn)
112	COC(=O)C1=C(C(=O)OC)SC(=C2C(=S)C(C)(C)N(C(=O)C3CC3)c3ccc(OC)cc32)S1
108	CCn1nc(C)c2ccnc(N3CCC(C(=O)Nc4cc(Cl)c(OC)cc4OC)CC3)c21
97	CCc1onc(C)c1C1CCCN1C(=O)c1ccnn1CC (stereo not drawn)
100	Cc1nn(-c2ccc3nncn3n2)c(C)c1CCC(=O)NCCN1CCOCC1
111	CCOc1ccc(-n2c(=S)sc3c(=O)n(-c4ccc(C)cc4)c(=S)[nH]c32)cc1
96	COC(=O)CSc1nnc(C)c2c(C)n(-c3ccc(C)cc3C)nc12
99	O=C(NCCCN1CCc2ccccc2C1)c1cc(S(=O)(=O)N2CCSCC2)ccc1Cl
120	CCOC(=O)CSc1nc(C)c(C(=O)Nc2ccccc2)c(-c2ccc(OC)cc2)c1C#N

The listing continues.
GIV-Gai inh	structure
106	CC(C)C(=O)N1CC(C)(C)c2cc(S(=O)(=O)NC3CC3)ccc21
109	O=C1CSC(c2ccc3c(c2)OCO3)N1c1ccc(Oc2ccccc2)cc1 (stereo not drawn)
96	CCc1onc(C)c1C1CCCN1C(=O)Cn1nc(C(F)(F)F)cc1C (stereo not drawn)
117	CCOc1cc(C(=O)Nc2c3c(nn2-c2cccc(C)c2C)CS(=O)(=O)C3)cc(OCC)c1OCC
104	CCC(=O)Nc1ccc(-c2cc(C(=O)Nc3ccc(F)cc3F)c3ccccc3n2)cc1
109	CCCC(=O)Nc1cccc(Oc2nc(C)cc(C)c2C#N)c1
108	Cc1ccc2sc(N3CCN(C(=O)c4ccc5c(c4)OCCO5)CC3)nc2c1C
106	COc1ccc(N2CCN(c3nccc4ccc(C(=O)Nc5ccc(Cl)cc5)cc34)CC2)cc1
105	COc1ccc(-c2cc(N3CCN(C(=O)Nc4ccc(C)c(Cl)c4)CC3)ncn2)cc1
101	CC(C)CC(=O)Nc1cnc(N2CCNCC2)c(C(=O)N2CCC(Cc3ccccc3)CC2)c1
104	O=C(Nc1ccc2c(c1)OCCO2)c1cccc(-c2cc(NC3CCCCC3)ncn2)c1
100	Cc1ccccc1-c1cc(N2CCN(C(=O)COc3ccc(Cl)cc3)CC2)ncn1
102	CCOC(=O)c1sc2nc(SCC(=O)N3CCCC3)n(Cc3cccs3)c(=O)c2c1C
100	Cc1noc(C)c1C1CCCN1C(=O)NC(C)(C)C (stereo not drawn)
